2A firefly = FMDV 2A StopGo reporter, firefly signal | HEK cells with a luciferase reporter of 2A StopGo recoding | Potency, µM (highest dose often 57.5 µM), inactives show at the highest dose signal change, negative = less light | AID 1745856 | 0.23% of 120,000 active; active = well fitted falling curve with a large enough effect; inconclusive = small, poorly fitted or top-dose-only effect; inactive = no such curve, though single readings can be large or run the other way; also: nearly all actives have a fitted effect of over 60% in size; overnight with compound
StopGo RLuc = lowers the Renilla signal of an FMDV 2A StopGo reporter; AID 1745857; 0.32% of 120,000 active; HEK cells with a luciferase reporter of 2A StopGo recoding; Potency, µM (highest dose often 57.5 µM), for inactives: top-dose signal change, negative = less light; active means well fitted falling curve with a large enough effect; inconclusive means small, poorly fitted or top-dose-only effect; inactive means no such curve, though single readings can be large or run the other way; also: nearly all actives have a fitted effect of over 55% in size; overnight with compound
Starred values were filed as active, the others as inactive; u = inconclusive; [ ] = remark or other dose. % is scaled to controls: 0 for no effect and ±100 for the full control effect; potency is read from the fitted curve at half-maximal effect.

smiles	2A firefly	StopGo RLuc
CCOC(=O)c1cc(-c2ccc(OC)cc2)n(CCC(=O)Nc2cccc(C)c2C)c1C	-14%	43%[activator]
Cc1ccc(C)c(N2CCN(S(=O)(=O)c3ccc4c(c3)n(C)c(=O)c(=O)n4C)CC2)c1	-13%	-15%
CC1C/C(=N/NC(=S)Nc2ccc(SC(F)F)cc2)CC(C)(C)C1 (stereo not given)	159%[activator]	14%
Cc1noc(C)c1C(=O)OC(C)C(=O)c1c[nH]c2ccccc12 (stereo not given)	3%	3%
Fc1ccc(-c2nc(COc3c(Cl)cccc3Cl)co2)cc1	u	4%
Cc1c(C(=O)NCc2ccccc2Br)oc2ccc3c(c12)C(=O)CC(C)(C)O3	-37%	0%
O=c1cc(CN2CCN(c3cccc(Cl)c3)CC2)c2cc(Cl)c(O)cc2o1	-11%	-19%
CCOc1ccc(S(=O)(=O)N(C)CC(=O)N2CCN(CC)CC2)cc1C	-8%	-12%
O=C(COC(=O)Cc1ccc(F)cc1)NCc1ccccc1	4%	2%
COc1cccc(C(=O)NCc2coc(-c3cccs3)n2)c1OC	15%	9%
Cn1nc(C(=O)NCc2ccc(O)cc2)c2ccccc2c1=O	20%	19%
O=S(=O)(Nc1nc2ccccc2nc1NCc1ccc2c(c1)OCO2)c1ccc(F)cc1	1%	-1%
Cc1cc(C)c(NC(=O)c2cc(CN3CCOCC3)on2)c(C)c1	-12%	-8%
COc1ccc(C2C(=O)N(C3CCCCCC3)CC(=O)N2CCc2ccc(OC)c(OC)c2)cc1 (stereo not given)	0%	2%
COc1cc2c(c(OC)c1)C(c1ccccc1OC(C)C)CC(=O)N2 (stereo not given)	8%	44%[activator]
COc1cccc(OCC(=O)Nc2nnc3n2CCS3)c1	11%	-16%
Cc1ccc(C)c(NC(C)C(=O)Nc2sccc2C#N)c1 (stereo not given)	18%	-1%
S=C1NC2(CCCCC2)N=C1c1ccc(Br)cc1	12%	4%
COc1ccc(/C=C/c2ccc3ccccc3n2)cc1O	-99%	4%
CC(O)CNc1nc(C(C)C)c2c(c1C#N)CCCC2 (stereo not given)	-11%	-1%
CCc1ccc(-c2nc3cc(NS(=O)(=O)c4ccccc4)ccc3o2)cc1	31%[activator]	66%[activator]
CCOc1ccc(CC(=O)NNC(=S)NCCCOC)cc1OCC	0%	23%
O=C(Cn1ccc2cc(S(=O)(=O)N3CCCC3)ccc21)NCc1ccccc1Cl	2%	19%
N#CCCN(CCC#N)c1ccncc1	0%	-2%
COc1ccccc1CNC(=O)C1CCN(Cc2nc(-c3ccc(OC)c(OC)c3)oc2C)CC1	0%	-20%

At a glance, some entries already given:
smiles	2A firefly	StopGo RLuc
Cc1cc(C)c(NC(=O)c2cc(CN3CCOCC3)on2)c(C)c1	-12%	-8%
COc1ccc(C2C(=O)N(C3CCCCCC3)CC(=O)N2CCc2ccc(OC)c(OC)c2)cc1 (stereo not given)	0%	2%

The listing continues:
smiles	2A firefly	StopGo RLuc
CCC(CC)C(=O)Nc1cccc(-c2nc3cc(C)ccc3o2)c1	87%[activator]	18%
CC(OC(=O)CC1Oc2ccccc2NC1=O)C(=O)NC1CCCC1 (stereo not given)	3%	27%
CCN(CC)S(=O)(=O)c1ccc(-c2nc(C#N)c(NCc3ccccc3)o2)cc1	8%	0%
CC(C)C(C)NC(=O)COC(=O)/C=C/c1cccc2cccnc12 (stereo not given)	12%	27%
COCCn1c(C)cc(/C=N/n2cnnc2SCc2ccc(Cl)cc2)c1C	9%	1%
CCOC(=O)c1ccc(NC(=O)C(CC)Sc2nc3ncccc3o2)cc1 (stereo not given)	187%[activator]	0%
CCNC(=O)NC(=O)CSc1cc(C)c2cccc(C)c2n1	-6%	-11%
Cn1cc(C2=C(c3cn(C4CCN(Cc5ccccn5)CC4)c4ccccc34)C(=O)NC2=O)c2ccccc21	-19%	-14%
Cc1ccc(Cl)cc1NC(=O)CN1CCCN(c2ccc(C(F)(F)F)cn2)CC1	12%	7%
COC(=O)c1cccc(NC(=O)c2nsc3ccccc23)c1	24%	9%
CCCn1c(-n2nc(CC)cc2CC)nc2c1c(=O)n(CC(N)=O)c(=O)n2C	-11%	-11%
Cn1c(=O)c2c(ncn2CC(=O)NC23CC4CC(CC(C4)C2)C3)n(C)c1=O	13%	1%
Cc1c(NC(=O)c2nn(CCO)c(=O)c3ccccc23)c(=O)n(-c2ccccc2)n1C	6%	2%
COc1cccc(CNC(=O)C2CCN(c3nnc(-n4c(C)ccc4C)s3)CC2)c1	23%	-3%
Cc1ccc(CCNC(=O)c2cc(C)nc3c2c(C)nn3-c2ccc(C)cc2)cc1	-10%	-11%
CCNC(=O)NC(=O)CN1CCCCCCC1	2%	0%
Cc1cccc(C)c1NC(=O)C(=O)c1c[nH]c2ccccc12	24%	-3%
COc1ccc(Nc2nnc(-c3cc4cc(Cl)ccc4oc3=O)s2)cc1	-18%	-11%
COc1ccc(Cl)cc1NC(=O)Cn1nnc(C(=O)NCc2cccs2)c1N	87%[activator]	52%[activator]
CC(NS(=O)(=O)c1ccc(F)cc1Cl)C(=O)N1CCCC1 (stereo not given)	9%	5%
CCc1ccc2c(CSc3nc(N)cc(N)n3)cc(=O)oc2c1	73%[activator]	39%[activator]
Cc1ccc(CNC(=O)C2CCN(S(=O)(=O)c3ccc(F)cc3)CC2)cc1	-15%	4%
CCc1ccc(/C=C2\Oc3cc(OS(=O)(=O)c4ccc(OC)cc4)ccc3C2=O)cc1	18%	-14%
COc1ccc(CCNC(=O)C2CCN(c3nc4ccccc4nc3C(F)(F)F)CC2)c(OC)c1	-13%	-10%
CCOc1ccc(C(=O)CC2(O)C(=O)Nc3ccc(Cl)cc32)cc1 (stereo not given)	21%	150%[activator]

(continued)
compound | 2A firefly | StopGo RLuc
O=c1c(-c2ccccc2)coc2cc(OCc3cccc4ccccc34)ccc12 | 10% | 19%
COc1ccccc1C(=O)Nc1ccccc1OCc1cc(=O)n2cc(C)sc2n1 | -11% | -11%
COc1ccc(S(=O)(=O)NCc2ccc3c(c2)CCN3C(C)=O)cc1OC | 13% | 82%[activator]
Cc1oc(-c2ccccc2)nc1C(=O)Nc1ccc(S(=O)(=O)NC2CC2)cc1 | -4% | -9%
O=C(O)CCC(=O)CCC(=O)c1ccc(Br)cc1 | 10% | 8%
CCN(Cc1ccccc1)c1ccc(NS(=O)(=O)c2ccc(C3CCCCC3)cc2)cc1C(=O)O | 1% | 34%[activator]
CC1=C(C(=O)N2CCOCC2)C(c2cc(Br)ccc2F)C2=C(CCCC2=O)N1 (stereo not given) | 3% | 8%
c1ccc(N2CCN(c3nc(N4CCCCC4)nc4nccnc34)CC2)cc1 | 10% | -1%
CCC(C)(C)NC(=O)Cc1csc(-c2ccccc2)n1 | 0% | 0%
Cn1c(=O)c2c(nc(NCCO)n2Cc2ccccc2Br)n(C)c1=O | u | u
CCOc1ccccc1CNC(=O)CN(c1ccc(C)cc1)S(=O)(=O)N(C)C | -18% | 19%
Cc1noc(/C=C/N(C)C)c1S(=O)(=O)N1CCCC(C(=O)Nc2cccc(F)c2)C1 (stereo not given) | -10% | -3%
O=C(NNC(=O)C1CCCc2ccccc21)c1ccccc1Br (stereo not given) | -6% | 16%
Cc1nn(C)c(C(=O)Nc2sc3c(c2C#N)CCC3)c1Br | 14% | -7%
Cc1cccc(-n2ncc3c(NC4CCCCCC4)ncnc32)c1 | 17% | -19%
O=S(=O)(Nc1nc2ccccc2nc1Nc1ccc(F)cc1)c1ccccc1 | u | u
CCCOc1ccccc1Oc1ncccc1CNC(=O)NCC | -2% | -16%
Cc1cc(C)c(-c2csc(-c3cc4ccccc4oc3=O)n2)cc1C | -7% | -11%
COC(=O)C1(C(F)(F)F)N=C(N2CCOCC2)Oc2c1c(C)nn2-c1ccccc1 (stereo not given) | -8% | -9%
Cc1ccc(C)c(NC(=O)N2CCCC2c2ccccc2Cl)c1 (stereo not given) | 15% | 19%
CCCn1nc(C(=O)N2CCCCCC2)c2ccccc2c1=O | 3% | 16%
CN1C(=O)Cc2cc(S(=O)(=O)CCC(=O)N3CCN(c4cccc(Cl)c4)CC3)ccc21 | 0% | 10%
O=C(CCNC(=O)c1cccs1)NCC1COc2ccccc2O1 (stereo not given) | -7% | -7%
CC(C)Sc1nnc2c3cc(F)ccc3n(C)c2n1 | 81%[activator] | -5%

Reprinted from the part before: 2 entries; new compounds follow.
compound | 2A firefly | StopGo RLuc
O=C(CCNC(=O)c1cccs1)NCC1COc2ccccc2O1 (stereo not given) | -7% | -7%
CC(C)Sc1nnc2c3cc(F)ccc3n(C)c2n1 | 81%[activator] | -5%
Cc1cc(C)nc(-n2nc(C)c3c2N(Cc2ccccc2)C(=O)CC3c2ccccc2)n1 (stereo not given) | -6% | 7%
OC(CN1CCN(C/C=C/c2ccccc2)CC1)c1cccc(F)c1 (stereo not given) | -10% | -2%
COC(=O)[C@]12C[C@H](CC(=O)N3CCN(C(=O)c4ccco4)CC3)C(=O)N(Cc3ccccc3)C1=C[C@H](COCc1ccccc1)O[C@@H]2C | 11% | 13%
CC(c1ccc(Cl)cc1)N(C)Cc1nc2ccccc2o1 (stereo not given) | 5% | -2%
COc1ccccc1CN(C)CC(O)COc1ccc(-c2ccccc2)cc1 (stereo not given) | 2% | -8%
CCCN1C(=O)C2(C(=C(O)c3ccc(OCC)cc3)C(=O)C(=O)N2CCOC)c2ccccc21 (stereo not given) | -8% | -10%
Cc1ccc(Nc2nc(NC3CCCCC3)nc3c2cnn3C)c(C)c1 | 2% | -2%
COc1cccc(N2CC(NC(=O)/C=C\c3ccccc3)CC2=O)c1 (stereo not given) | -21% | -3%
CCOc1ccc(NC(=O)C(C)Sc2nnc3cc(C)c4ccccc4n23)cc1 (stereo not given) | -14% | -9%
COc1cccc(OCCSc2nc3ccccc3n2CC(=O)N2CCOCC2)c1 | -5% | 6%
O=C(CSc1nnnn1-c1ccc(C(=O)O)cc1)Nc1ccccc1 | 0% | -4%
COC(=O)c1sc(=S)n(C)c1C | -9% | 3%
Fc1ccc(N2CCN(Cc3ncc(-c4ccc(Cl)cc4)o3)CC2)cc1 | -6% | -20%
COc1cccc(CNC(=O)c2scnc2C)c1 | 13% | 3%
N#CNC(=Nc1cccc(F)c1)SCc1ccccc1 | 55%[activator] | 70%[activator]
CC(C)C(NS(=O)(=O)c1cccc2cccnc12)C(=O)Nc1ccc(OC(F)(F)F)cc1 (stereo not given) | -17% | 192%[activator]

Profiles as entered above. Values in the order: 2A firefly	StopGo RLuc
`COc1cccc(CNC(=O)c2scnc2C)c1` in the list: 13%	3%
`Fc1ccc(N2CCN(Cc3ncc(-c4ccc(Cl)cc4)o3)CC2)cc1` in the list: -6%	-20%
`COc1cccc(OCCSc2nc3ccccc3n2CC(=O)N2CCOCC2)c1` in the list: -5%	6%

New compounds follow.
compound | 2A firefly | StopGo RLuc
CCOC(=O)c1oc2c(c1C)-c1nn(Cc3ccc(Cl)cc3)cc1CC2 | 8% | -9%
O=C(NCCc1cccs1)C1CC2CCCC(C1)C21SCCS1 (stereo not given) | 54%[activator] | 13%
Cc1cc(C)n(-c2nc3ccccc3nc2Nc2ccc(F)cc2F)n1 | 0% | 4%
Cn1nc(C(=O)OCc2nc(-c3ccc(Br)cc3)no2)c2ccccc21 | 10% | -13%
COc1cccc(-c2cn3c(n2)sc2cc(C(=O)NCCc4ccc(OC)c(OC)c4)ccc23)c1 | 64%[activator] | -5%
COc1cccc(Oc2c(C(F)(F)F)oc3cc(OC(C)=O)ccc3c2=O)c1 | -15% | u
O=C(OCC1C(COC(=O)c2cc([N+](=O)[O-])ccc2Cl)C1(Cl)Cl)c1cc([N+](=O)[O-])ccc1Cl (stereo not given) | 14% | 0%
O=C(COc1ccc(Cl)cc1)Nc1ccc(Cl)cc1C(=O)c1ccccc1 | -8% | -10%
CCc1ccc2c(CN(C)CC(=O)N(C)C)cc(=O)oc2c1 | 19% | 2%
CCOC(=O)c1c(NC(=O)c2ccc(C)cc2)sc2c1CCCCC2 | -17% | -10%
CCCCn1c(N)c(N(CC)C(=O)C2Cc3ccccc3C(=O)O2)c(=O)[nH]c1=O (stereo not given) | 4% | -3%
Cn1c(=O)c2c(SCC(=O)N3CCc4ccccc43)nc(-c3ccccc3Cl)nc2n(C)c1=O | -13% | -5%
Cc1cccc(C)c1Nc1c(-c2ccccc2O)nc2cnccn12 | -5% | -7%
Fc1ccc(-n2ncc3c(NCCCn4ccnc4)ncnc32)cc1 | 191%[activator] | 9%
O=S(=O)(NC(c1ccccc1)c1ccccc1)c1cccc2nsnc12 | 4% | 95%[activator]
COc1ccc(-c2cc(Nc3ccccc3Cl)nc(C)n2)cc1 | 174%[activator] | 5%
Cc1ccc(-n2c(=O)c3c(cnn3C)n(CC(=O)Nc3cccc(C)c3)c2=O)cc1 | 0% | 7%
CN(Cc1ccsc1)C(=O)CCc1ccsc1 | 21% | 75%[activator]
CCc1cccc(NC(=O)C(Cc2ccccc2)n2cccc2)c1 (stereo not given) | -6% | 0%
CSCCC(=O)N1CCN(c2oc(-c3ccco3)nc2C#N)CC1 | -6% | -11%
O=C1CN2CCOC2(c2ccccc2Cl)c2cc(Cl)ccc2N1 (stereo not given) | -10% | 3%
Cn1nc(C(=O)N(CC(N)=O)c2ccccc2)c2ccccc2c1=O | 10% | 3%

Screens: PubChem, National Center for Advancing Translational Sciences (NCATS)

These rows are one share of the data. The share of hits here may be higher or lower than overall.
